Source: PubChem (National Center for Advancing Translational Sciences (NCATS))
Vaccinia mCherry: vaccinia inhibition (mCherry reporter); Vaccinia virus mCherry reporter infection, fluorescence; about a quarter of the inactives have no number; Potency, µM (titrated, usually from 36.5 µM), inactives show at the top dose activity change, negative = inhibition, most hits filed as inhibitors; hit rate 0.63% among 310,000; active = well fitted inhibition curve with a large enough effect; inconclusive = small, poorly fitted or top-dose-only effect; inactive = no such curve, though single readings can be large or run the other way; tested in A549 cells; also: nearly all actives have a fitted effect of over 35% in size; inactives centre near -10
Vaccinia Venus: inhibitors of vaccinia virus (Venus reporter); Vaccinia virus Venus reporter expression, fluorescence; hit rate 0.46% among 330,000; Potency, µM (highest dose often 36.5 µM), inactives show at the highest dose activity change, negative = inhibition, most hits filed as inhibitors; active means well fitted inhibition curve with a large enough effect; inconclusive means small, poorly fitted or top-dose-only effect; inactive means no such curve, though single readings can be large or run the other way; tested in A549 cells; also: nearly all actives have a fitted effect of over 30% in size; inactives centre near -10
* hit, by the source's call; i = inactive; u = inconclusive; x = not tested or not shown; & = joins results of further samples; [ ] = remark or other dose. % is scaled to controls: 0 for no effect and ±100 for the full control effect; potency is read from the fitted curve at half-maximal effect.

Results follow in this order: Vaccinia mCherry | Vaccinia Venus
- CCOc1ccc(N=Cc2c(O)c3ccccc3oc2=O)cc1
 : i | -5.2%
- COCC(=O)N1CCC(Oc2ccc(C(=O)NCCCC3CCCC3)cc2)CC1
 : -11.5% | -29.3%
- Cc1ccc(NC2=C(CC(=O)O)C(c3ccccc3)N(c3ccc(C)cc3)C2=O)cc1 (stereo not given)
 : -2.8% | -16.8%
- CC(=O)c1ccc(OCc2cn(CC(=O)c3ccc(O)cc3)nn2)c(C)c1
 : -6.2% | -12.6%
- COc1ccccc1Nc1ccc([N+](=O)[O-])cn1
 : -22.9% | -10.1%
- CC(C)[C@@H]1NC(=O)[C@H](Cc2ccccc2)NC(=O)[C@@H](CC(=O)O)NC(=O)CNC(=O)[C@H](CCCNC(=N)N)NC1=O
 : -13.2% | -10.2%
- COc1ccc(NC(=O)CSc2nnc(Cc3ccccc3)o2)c(OC)c1
 : i | -9.1%
- COC(=O)c1ccc(N=NNc2ccccc2)cc1
 : -8.6% | -3.8%
- CC(=O)Nc1ccc(NC(=O)C2(C)Cc3c(-c4cccc(C(F)(F)F)c4)ccnc3O2)cc1 (stereo not given)
 : -16.6% | -29.5%
- Cc1ccc2c(c1)C1(OCCO1)C(=O)N2
 : -0.5% | -1.3%
- Cc1cc(C)n(CCNC(=O)[C@H]2O[C@@H](n3cnc4c(N)ncnc43)[C@H](O)[C@@H]2O)n1
 : 27.3% | -0.7%
- O=C(C1CCN(S(=O)(=O)c2cccc3cccnc23)CC1)N1CCN(c2ccccc2)CC1
 : i | -1.7%
- CCn1c(C)cc(/C=C2/SC(=O)N(CC(=O)N3CCCC3)C2=O)c1C
 : -4.2% | -2.0%
- Cc1cc(=O)[nH]c(SCC(=O)Nc2nc(-c3ccccc3)cs2)n1
 : -8.0% | 11.4%
- Cc1ccc(Cn2c(=O)n(CCCCC(=O)NCc3ccc4c(c3)OCO4)c(=O)c3ccccc32)cc1
 : -10.1% | -6.5%
- CS(=O)(=O)N1CCCC(C(=O)Nc2c(F)cccc2F)C1 (stereo not given)
 : i | -11.7%
- Cc1ccc(S(=O)(=O)N2CC(C(=O)O)Oc3ccccc32)cc1 (stereo not given)
 : i | -13.7%
- O=c1cc(CN2CCN(c3ccc(Cl)c(Cl)c3)CC2)c2ccccc2o1
 : i | -11.2%
- O=C(COc1ccc(S(=O)(=O)N2CCOCC2)cc1Cl)NCc1ccccn1
 : -9.1% | -1.7%
- COC(=O)c1cc(S(=O)(=O)N2CCCCCC2)c[nH]1
 : -16.2% | -7.6%
- COc1cc(/C=C/C(=O)C2C(=O)C=C(C)OC2=O)cc(OC)c1O (stereo not given)
 : 58.0%[activator] | 81.8%[activator]
- O=C(O)C1C2CCCCC2=C2CCCCC2C1C(=O)c1ccccc1 (stereo not given)
 : -6.8%[7.34 µM] | 0.0%[7.34 µM]
- Cc1cc2ccccc2c(=O)[nH]1
 : -13.3% | -14.6%
- Cc1cc(S(=O)(=O)NCC(=O)O)ccc1F
 : i | -7.8%
- COc1ccc(S(=O)(=O)N2CCC(C(=O)N3CCc4ccccc4C3)CC2)cc1
 : i | -12.2%
- O=C(C1CCN(C2CCN(Cc3ccsc3)CC2)CC1)N1CCOCC1
 : i | -7.5%
- Cc1ccc(C2CC(c3ccccc3)=NN2C(=O)CSc2nnc(-c3ccncc3)n2C)o1 (stereo not given)
 : i | -5.5%
- CCCCOc1ccc(OC(=O)Nc2cc(Cl)ccc2OC)cc1
 : -18.4% | -9.6%
- CCCCN(C(=S)NC(=O)c1cc(OC)c(OC)c(OC)c1)c1c(N)n(Cc2ccccc2)c(=O)[nH]c1=O
 : i | -10.6%
- Nc1ccc2cccnc2c1
 : u | u
- COc1ccccc1NS(=O)(=O)c1ccc(N/N=C(\C)C(C)C)c([N+](=O)[O-])c1
 : -26.7% | -26.5%
- Cc1ccc(N2CCN(C(=O)N3CCOCC3)CC2)c(C)c1
 : -7.4% | -8.2%
- Cc1noc2ncnc(N3CCCC(C(=O)NCCC(C)C)C3)c12 (stereo not given)
 : -22.7% | -25.3%
- COCCCNC(=O)c1cccc2c(-c3ccc(OC)cc3C)coc12
 : 2.0% | -28.2%
- O=C1C2ON(c3ccc(Br)cc3)C(c3cccnc3)C2C(=O)N1C1CCCCC1 (stereo not given)
 : x | -2.0%
- CN1CC(=O)N(CC(=O)N2N=C(c3ccc(Cl)cc3)CC2c2ccco2)C1=O (stereo not given)
 : -15.2% | -13.7%
- Cc1ccc(CNC(=O)CCS(=O)(=O)c2ccc3c(c2)CC(C)N3C(=O)C2CC2)cc1 (stereo not given)
 : -24.9% | -25.3%
- C[C@@H]1CCCCO[C@H](CN(C)C(=O)c2ccccc2)[C@@H](C)CN([C@H](C)CO)C(=O)c2cc(NC(=O)NC3CCCCC3)ccc2O1
 : i | -26.9%
- CC12CCC(=O)C=C1C(F)CC1C2C(O)CC2(C)C1CCC2(O)C(=O)CO (stereo not given)
 : 0.0% | -7.4%
- O=C(c1ccc(Cl)cc1)c1ccc(OCC(O)CN2CCCCC2)cc1 (stereo not given)
 : -12.6% | -2.9%
- N/C(=N\OC(=O)COc1ccc(Cl)cc1Cl)c1cccnc1
 : -10.0% | -14.1%
- CCOC(=O)C1CCN(S(=O)(=O)c2cc(-c3cc(C)no3)ccc2C)CC1
 : -0.1% | 4.9%
- COc1ccccc1CN(C)C(=O)c1cc(S(=O)(=O)N2CCCCCC2)ccc1OC
 : i | -15.6%
- CCn1c(CNC(=O)c2cc(OC)c(OC)c(OC)c2)cc2cc(C)ccc21
 : u | -20.8%
- Cc1cccc(C(=O)Nc2cc(-c3ccccc3F)nn2-c2ccccc2)c1
 : -10.4% | -1.4%
- CCc1cccc(C)c1NC(=S)N(Cc1cccnc1)Cc1ccco1
 : i | 0.1%
- C[C@H](CO)N1C[C@H](C)[C@@H](CN(C)C(=O)c2ccccc2)Oc2cc(C#C[C@@H](C)O)ccc2S1(=O)=O
 : -11.4% | -6.6%
- O=[N+]([O-])c1cccc(COc2ccccc2CO)c1
 : -10.2% | -3.9%
- O=Cc1c(Cl)[nH]c(=O)n1-c1ccccc1
 : -8.9% | 0.0%
- O=C(NCCCN1CCOCC1)C(=O)NCc1ccc(Cl)cc1
 : -3.5% | 8.8%
- Cc1ccc(C2CC(=O)C=C(O)C2)cc1 (stereo not given)
 : x | -4.0%
- CC(C)c1ccc([C@@H]2O[C@H](CCc3ccccc3)CC3=C2C(=O)OC(C)(C)O3)cc1
 : -4.4% | 1.2%
- COc1cc(-c2c(C(=O)c3ccccc3)[nH]c(N)c2C(N)=O)ccc1F
 : -12.6% | -15.3%
- CC(=O)c1cccc(-c2ccnc3c2CC(C(=O)NCc2ccco2)O3)c1 (stereo not given)
 : -18.7% | u
- O=C(CCCn1cncn1)N1CCCC(N2CCN(c3ccccc3F)CC2)C1 (stereo not given)
 : -27.5% | -7.1%
- CC1(O)C(=O)c2ccccc2N(c2ccccc2)C1=O (stereo not given)
 : -7.4% | -1.1%
- Cc1sc2ncnc(N3CCC(C(=O)Nc4nc5ccc(Cl)cc5s4)CC3)c2c1C
 : -15.6% | -3.9%
- COc1ccc(Oc2cc(C(F)(F)F)cnc2C(N)=O)cc1
 : x | -29.8%
- O=C(CNC(=O)c1ccccc1F)NC1CCN(Cc2ccccc2)CC1
 : u | -1.0%
- CN(c1ccccc1)S(=O)(=O)c1ccc(NC(=O)c2ccco2)cc1
 : 0.1% | -10.5%

New compounds follow
Results follow in this order: Vaccinia mCherry | Vaccinia Venus
- C=CCOc1c(Cl)cc(CNCCCN2CCOCC2)cc1OC
 : -3.0% | -6.2%
- O=C(Nc1ccccc1C(=O)O)c1ncn[nH]1
 : i | -10.0%
- O=C(NCCN1CCC(n2c(=O)[nH]c3ccccc32)CC1)N1c2ccccc2Sc2ccccc21
 : u | -29.0%
- CCC1/C=C/C=CCC(C)C(O)[C@@](C)(O)C(=O)C(C)C(O)C(C)C(=O)C(C)C(O)C(C)C=CC(=O)O[C@H]2C(C)C(CC1)O[C@]1(CCC(C)C(CC(C)O)O1)C2C (stereo not given in full)
 : -11.7% | -15.0%
- CCOc1ccc(OCCSc2nc3ccccc3o2)cc1
 : i[1.46 µM] | -18.7%
- CCOc1ccc(S(=O)(=O)NCC(c2ccco2)S(=O)(=O)c2cccs2)cc1 (stereo not given)
 : i | -14.5%
- O=C(/C=C/c1ccccc1)C1=C(O)C(=O)N(CCO)C1c1cccc([N+](=O)[O-])c1 (stereo not given)
 : i | 12.3%
- Cc1ccc(C)c(CN2C(=O)c3ccccc3S(=O)(=O)c3ccc(C(=O)N4CCN(c5ccccc5)CC4)cc32)c1
 : -16.9% | -13.5%
- Cc1cccc(C(=O)Nc2sc3c(c2C(=O)O)CCCC3)c1
 : u | u
- O=C(NC(c1ccc(F)cc1)c1ccc2ccccc2n1)C1CCN(Cc2ccc3ccccc3n2)CC1 (stereo not given)
 : u | -23.9%
- CCc1ccc(C2=NNC(=Nc3cccc(S(=O)(=O)N(C)C)c3)SC2)cc1
 : u | u
- CCC(CC)c1nnc(NC(=O)C2CC(=O)N(CCc3ccc(OC)c(OC)c3)C2)s1 (stereo not given)
 : i | -8.6%
- COc1ccc(OC)c(S(=O)(=O)Nc2cccc(-c3ccc(N4CCCCC4)nn3)c2)c1
 : -23.7% | -18.7%
- Cn1c(N)c(N2CCCCC2)c(=O)n(CC(=O)Nc2cccc(C#N)c2)c1=O
 : -21.2% | -8.5%
- Cc1ccc(C)c2[nH]c(=O)c(CN(CCCN(C)C)C(=O)NCc3ccccc3)cc12
 : x | -25.5%
- CC(C)OC(=O)/C=C1\C[C@@H](c2ccccc2C(F)(F)F)O[C@@H](c2ccccc2C(F)(F)F)O1
 : -9.3% | -4.9%
- CCOc1ccc(NC(=O)c2cnc3scc(C)n3c2=O)cc1
 : -13.0% | -17.2%
- Cc1ccc(CN2CC(N3CCN(c4ccccn4)CC3)CS2(=O)=O)cc1 (stereo not given)
 : 12.0% | 0.9%
- CCCNC(=O)CSc1nc2ccc(OCC)cc2s1
 : i | -14.9%
- COc1cc2nc(N(CCCN(C)C)C(=O)c3ccc(S(=O)(=O)N4CCc5ccccc54)cc3)sc2cc1OC
 : i | -11.8%
- Cc1ccccc1NC(=O)C(C)N1C(=O)c2ccccc2C1=O (stereo not given)
 : -9.2% | -3.5%
- Cc1oc(-c2ccccc2Cl)nc1CS(=O)(=O)CC(=O)NC(C)c1ccccc1 (stereo not given)
 : -6.5%&-15.5% | -22.0%&-23.5%
- Cc1ccc(Cc2c(C)nc3nc(SCC(=O)NCCCN4CCCC4)nn3c2C)cc1
 : -16.9% | -10.9%
- CCSc1ccc(-c2cc(NC=O)c3ncc(-c4cccc(C(=O)N(C)C)c4)n3c2)cc1
 : 8.2% | -5.9%
- O=C(Nc1ccc(F)cc1)C(c1cccc(F)c1)N1CCN(CC(=O)N2CCCC2)CC1 (stereo not given)
 : -6.6% | -4.3%
- CCOc1ccc(C(=O)NC(=S)Nc2cccnc2)cc1
 : -16.5% | -0.5%
- CCOc1c(Br)cc(C(N)=O)cc1OC
 : -14.0% | -4.7%
- CC(=O)N/C(=C\c1ccccc1)C(=O)OC(C)C(=O)NCc1ccccc1 (stereo not given)
 : -1.3% | -10.1%
- Cc1ccccc1NC(=O)CSc1ccc(-c2ccco2)nn1
 : -21.7% | -5.2%
- CCOc1ccc(C(=O)NN2C(=O)C3C4C=CC(O4)C3C2=O)cc1 (stereo not given)
 : -9.9%[1.46 µM] | -15.1%

In a second layout: entries from further up
| Compound | Vaccinia mCherry | Vaccinia Venus |
| --- | --- | --- |
| Cn1c(N)c(N2CCCCC2)c(=O)n(CC(=O)Nc2cccc(C#N)c2)c1=O | -21.2% | -8.5% |
| Cc1ccc(C)c2[nH]c(=O)c(CN(CCCN(C)C)C(=O)NCc3ccccc3)cc12 | x | -25.5% |
| CC(C)OC(=O)/C=C1\C[C@@H](c2ccccc2C(F)(F)F)O[C@@H](c2ccccc2C(F)(F)F)O1 | -9.3% | -4.9% |

Later entries
Results follow in this order: Vaccinia mCherry | Vaccinia Venus
- CCNS(=O)(=O)c1ccc(NC(=S)N2CCc3ccccc32)cc1
 : -16.2% | -1.2%
- O=C(Cn1cc(C(=O)c2ccco2)c2ccccc21)Nc1ccc(Br)cc1
 : -5.6% | -5.1%
- CCCCN(C(=O)/C=C/c1ccccc1)C1CCS(=O)(=O)C1 (stereo not given)
 : -12.9% | 0.8%
- Cc1c(C(=O)N2CCCCCC2)c(S(=O)(=O)Nc2ccc(F)cc2)c(C)n1C
 : -18.5% | -3.3%
- CCc1ccc(C(=O)c2cn(CC(=O)Nc3ccc4c(c3)OCO4)c3ccc(OC)cc3c2=O)cc1
 : -11.0% | -21.5%
- CCC1CN(C(=O)N2CCC(C(=O)NCCc3ccc(OC)cc3OC)CC2)c2cc(C)ccc2O1 (stereo not given)
 : -14.8% | -20.3%
- CC1=C(C)C(=O)N(c2ccc(C(=O)O)cc2)C1=O
 : x | -3.2%
- CC(NC(=O)c1ccc(Br)cc1Br)c1ccccc1 (stereo not given)
 : 7.6% | -1.8%
- Cc1ccc(S(=O)(=O)N2CCCC(C(=O)NCC3COCCO3)C2)cc1 (stereo not given)
 : x | -5.4%
- Cn1cc(S(=O)(=O)N2CCN(c3cccc(Cl)c3)CC2)c(=O)n(C)c1=O
 : -1.8% | -11.7%
- COc1ccc(NC(=O)CSc2nc3nc(C)c(Cc4ccc(C)cc4)c(C)n3n2)cc1OC
 : i | -17.6%
- Cc1cc2oc(=O)cc(C)c2cc1NC(=O)CCC(=O)O
 : -16.2% | -8.2%
- CCc1cccc(NC(=O)CSCc2cc(=O)[nH][nH]2)c1
 : i | -8.4%
- CCN(CC)C(=O)c1[nH]cnc1C(=O)N[C@@H](Cc1ccccc1)C(=O)OCc1ccccc1
 : i | 8.5%
